YopH inh: inhibitors of Yersinia enterocolitica YopH tyrosine phosphatase; fluorescence Ex485/Em525; inhibition, %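 (about 10 µM by stock and volumes)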; actives 0.16% (n = 140,000);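 active means inhibition of 50% or more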;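 further: controls were vehicle for no effect and minimum signal wells for full effect; inactives centre near -20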
Arbovirus anti: arbovirus infection inhibition | arbovirus infection cell-based antiviral screen | actives 0.37% (n = 200,000) | inhibition, % at 10 µM;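 active means inhibition from about 30%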;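 further: bluetongue infection of BSR cells; cell survival read as ATP light after 72 h; 0% = infected wells without compound and 100% = uninfected wells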
Mtb growth: M. tuberculosis H37Rv growth inhibitors, H37Rv strain (AID 1626); M. tuberculosis H37Rv growth inhibition; higher % means a stronger effect; inhibition, % at 10 µM, or IC50 in µM where a hit was titrated; actives 0.95% (n = 220,000);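 active means confirmed in a dose series; inconclusive means inhibition above 80% but not taken into the dose series; inactive means below 80% or under 30% at every dose of the series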;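 further: bacteria incubated seven days before Alamar blue readout; 0% = bacteria only wells and 100% = bacteria with antibiotic wells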
RecA splice inh: inhibitors of M. tuberculosis RecA intein splicing. actives 0.75% (n = 290,000). AID 2221. cell-free RecA intein splicing, fluorescence. inhibition, %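 (about 9 µM by stock and volumes)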. P9WHJ3; in the data active means inhibition above about 30%; inconclusive means no clear call, values can overlap the other calls;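 further: 0% = vehicle wells and 100% = reference inhibitor control wells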
Target sequence (P9WHJ3 whole entry, looked up, canonical isoform): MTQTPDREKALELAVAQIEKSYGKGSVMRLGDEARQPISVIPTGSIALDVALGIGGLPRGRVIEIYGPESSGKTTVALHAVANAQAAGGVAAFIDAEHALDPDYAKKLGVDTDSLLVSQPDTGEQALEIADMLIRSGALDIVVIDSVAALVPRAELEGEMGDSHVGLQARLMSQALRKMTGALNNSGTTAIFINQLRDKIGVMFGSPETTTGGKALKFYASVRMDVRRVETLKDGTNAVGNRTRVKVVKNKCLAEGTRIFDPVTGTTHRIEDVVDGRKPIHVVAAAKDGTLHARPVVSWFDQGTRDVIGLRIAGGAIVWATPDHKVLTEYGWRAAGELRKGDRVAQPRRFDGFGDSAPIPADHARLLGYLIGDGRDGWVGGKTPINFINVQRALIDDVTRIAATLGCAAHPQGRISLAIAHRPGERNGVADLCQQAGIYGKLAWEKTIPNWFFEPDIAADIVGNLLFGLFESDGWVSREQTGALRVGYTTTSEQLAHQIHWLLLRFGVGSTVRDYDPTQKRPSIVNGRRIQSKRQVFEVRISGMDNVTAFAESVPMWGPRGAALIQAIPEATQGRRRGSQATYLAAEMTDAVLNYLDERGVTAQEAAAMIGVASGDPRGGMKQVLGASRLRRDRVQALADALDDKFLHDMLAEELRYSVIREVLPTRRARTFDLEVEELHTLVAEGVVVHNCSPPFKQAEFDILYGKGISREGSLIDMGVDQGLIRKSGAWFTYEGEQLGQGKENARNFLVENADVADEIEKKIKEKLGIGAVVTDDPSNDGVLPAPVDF
Mtb betalactam: beta-lactam sensitization of Mtb H37Rv; M. tuberculosis H37Rv growth with meropenem, percent inhibition; hits of this screen are not shown here; inhibition, % at 25 µM; actives 0.27% (n = 330,000); AID 434955;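 active means about 74% or more and at least 40 points above the plate without the antibiotic, then above 30% in a dose series; inconclusive means first-round hits that could not be retested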;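 further: growth measured after seven days incubation then overnight dye step; 0% = bacteria only wells and 100% = bacteria with antibiotic; twin plates without the antibiotic show which effects depend on it; some results filed as inactive read as strong as hits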
Arbovirus anti repeat: second read-out of Arbovirus anti, no call of its own (marks repeat the call); inhibition, %; measured here: 10K subset replicate screen; many hits read low in the repeat;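 first of two repeat runs on a subset; 0% = infected and 100% = uninfected wells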
An asterisk follows results filed as active; u = inconclusive; x = not tested or not shown; & = joins results of further samples.

SMILES	YopH inh	Arbovirus anti	Mtb growth	RecA splice inh	Mtb betalactam	others
CC(=O)N(c1ccc(C)cc1)S(=O)(=O)c1ccc(Cl)cc1	x	0	8%	-0.6	1
CCCCCCn1c(O)c(C=NCCN2CCCCC2)c(=O)[nH]c1=O	-26	15	-4%	-0.1	11
COc1ccccc1OCC#CCn1ccnc1	x	1	6%	-1.8	-7
Cc1ccc(-c2nc(C#N)c(NCCc3ccccn3)o2)cc1	-27	6	3%	1.1	8
c1ccc(CCc2nn3c(C4COc5ccccc5O4)nnc3s2)cc1 (stereo not given)	-51	-12	4%	1.9	1
CN1CCc2c(n(CC(O)CN(CCO)CCO)c3ccccc23)C1=O (stereo not given)	x	2	8%	8.2	-2
CCOc1cc(C(c2c(C)[nH][nH]c2=O)c2c(C)[nH][nH]c2=O)cc(Cl)c1O	x	x	x	95*	6
Brc1ccc(C2=CC(c3cccs3)n3ncnc3N2)cc1 (stereo not given)	21	16	-1%	-148	49
O=C1NC(=O)N(CCc2ccc(F)cc2)C(=O)/C1=C/C=C/c1ccccc1	x	x	5%	0.9	100
COc1ccc(CN2C(=O)COc3ccccc32)cc1	x	x	x	0.6	-1
S=C1NCN(C2CCCCC2)CN1c1ccccc1	x	x	-4%	-2.8	-13
Cn1c(SCC(=O)N2CCCc3ccccc32)nnc1-c1ccco1	-11	10	x	-1.3	-10
CC(C)n1c(NCc2nc3ccccc3n2C)nc2ccccc21	-16	4	-1%	x	-5
CN1CCCCCC1C(=O)N1CCC(N2CCC(C(=O)N3CCOCC3)CC2)CC1 (stereo not given)	x	-3	-1%	-2.7	-5
COCCCn1c(SCc2nnc(-c3ccc(OC)c(OC)c3)o2)nnc1-c1ccncc1	41	1	6%	-9.6	2
COc1ccc([C@@H]2[C@@H](C(=O)C(C)(C)C)N3N=Cc4ccccc4[C@@H]3C23C(=O)OC(C)(C)OC3=O)cc1OC	-29	-5	-6%	-2.3	-5
COC(=O)c1ccc(C(=O)N2CCCC(N3CCN(c4ccccc4)CC3)C2)nc1 (stereo not given)	x	x	x	6.8	2
NS(=O)(=O)c1ccc(CCNC(=O)CNC(=O)C2CCCCC2)cc1	-1	8	-1%	-3.8	-6
O=C(NC1CCCCCC1)C1CCCN(c2ncccn2)C1 (stereo not given)	x	x	x	0.2	-5
CCC(=O)N=c1ccn(C2=Nc3ccccc3NC2=C(C#N)C#N)cc1	x	x	5%	-0.9	-4

In the list so far, these have a cyano group:
SMILES	YopH inh	Arbovirus anti	Mtb growth	RecA splice inh	Mtb betalactam	others
Cc1ccc(-c2nc(C#N)c(NCCc3ccccn3)o2)cc1	-27	6	3%	1.1	8
CCC(=O)N=c1ccn(C2=Nc3ccccc3NC2=C(C#N)C#N)cc1	x	x	5%	-0.9	-4

Next section.
SMILES	YopH inh	Arbovirus anti	Mtb growth	RecA splice inh	Mtb betalactam	others
CC(=O)NC(Cc1ccc(N(CCCl)CCCl)cc1)C(=O)NC(CC(C)C)C(=O)O (stereo not given)	x	1	-3%	-0.5	-3
Cc1ccc2nc(Nc3ccc(C)c(C)c3)c3nncn3c2c1	x	x	x	2.2	0
OC(CNCCCCNCC(O)C(F)(F)F)C(F)(F)F (stereo not given)	x	10	3%	-2.2	5
O=C(Nc1cccs1)NC1CCCC1	-50	5	-6%	-11	-11
COC(=O)c1nc(NC(=S)NC(=O)c2cccs2)sc1C	x	x	x	2.3	u
COc1cccc(OC)c1C(=O)N1CCN(S(=O)(=O)c2ccc(C)cc2)CC1	-17	4	-5%	4.2	-6
Cc1nn(-c2ccccc2)c(C)c1/C=C/C(=O)OC(C)C(=O)Nc1ncc(Cl)cc1Cl (stereo not given)	-14	-3	13%	-2.1	2
CCOCCCNC(=S)N1CCC(NC(=O)C23CC4CC(CC(C4)C2)C3)CC1	x	-2	-3%	22	7
Cc1ccsc1C(=O)NNC(=S)NC1CCCCC1	x	x	x	2.3	-3
c1ccc2nc(N3CCN(Cc4ccc5c(c4)OCO5)CC3)cnc2c1	x	-1	17%	0.4	9
CC(NC(=O)Cc1c(F)cccc1Cl)C1CCCO1 (stereo not given)	-17	-6	-1%	-0.3	-2
Cc1ccccc1NC(=O)Cn1cnc2c(oc3ccccc32)c1=O	-3	-5	-6%	0.0	1
FC(F)(F)c1cccc(NC(=S)NCC2COc3ccccc3O2)c1 (stereo not given)	-27	-38	u	6.4	87
COC(=O)c1ccccc1NC(=O)Cn1c(-c2nonc2N)nc2ccccc21	-19	-17	x	-0.5	u
O=c1oc2cc([N+](=O)[O-])ccc2nc1/C=C(O)/C=C/c1ccccc1	x	x	-2%	-0.1	3
CS(=O)(=O)NCC(c1ccco1)N1CCN(c2ccc(F)cc2)CC1 (stereo not given)	-30	7	-3%	10	6
COc1cc(SC)ccc1C(=O)Nc1ccc2c(c1)OCO2	x	-2	10%	3.4	x
COc1ccc(N2CCN(C(=O)C3CCCN(S(=O)(=O)c4ccc(F)cc4)C3)CC2)cc1 (stereo not given)	x	x	x	-1.6	10
Cc1cc(C)cc(N(C(=O)c2csnn2)C(C(=O)NC2CCCC2)c2ccccn2)c1 (stereo not given)	x	x	x	0.3	-3
O=C(CCC(=O)OCc1ccc([N+](=O)[O-])cc1)Nc1ccc(F)cc1	x	2	0%	-1.3	-4

Reprinted at random: seven compounds from above, in no set order.
SMILES	YopH inh	Arbovirus anti	Mtb growth	RecA splice inh	Mtb betalactam	others
COc1ccc(N2CCN(C(=O)C3CCCN(S(=O)(=O)c4ccc(F)cc4)C3)CC2)cc1 (stereo not given)	x	x	x	-1.6	10
Cc1nn(-c2ccccc2)c(C)c1/C=C/C(=O)OC(C)C(=O)Nc1ncc(Cl)cc1Cl (stereo not given)	-14	-3	13%	-2.1	2
COc1cc(SC)ccc1C(=O)Nc1ccc2c(c1)OCO2	x	-2	10%	3.4	x
O=C(CCC(=O)OCc1ccc([N+](=O)[O-])cc1)Nc1ccc(F)cc1	x	2	0%	-1.3	-4
CS(=O)(=O)NCC(c1ccco1)N1CCN(c2ccc(F)cc2)CC1 (stereo not given)	-30	7	-3%	10	6
FC(F)(F)c1cccc(NC(=S)NCC2COc3ccccc3O2)c1 (stereo not given)	-27	-38	u	6.4	87
Cc1ccsc1C(=O)NNC(=S)NC1CCCCC1	x	x	x	2.3	-3

Next part.
SMILES	YopH inh	Arbovirus anti	Mtb growth	RecA splice inh	Mtb betalactam	others
COc1ccc(-c2noc(CCC(=O)NC3CCCCC3)n2)cc1	x	x	x	1.3	-2
CC(C)c1ccc(N2C=Nc3ccc(C(C)C)cc3C2)cc1	x	x	77%	11	94
C1CCCCCC(NCCN2CCNCC2)CCCCC1	x	x	2%	1.2	-3
O=C(NC1CC1)C1Nc2ccc(OC(F)(F)F)cc2C2C=CCC12 (stereo not given)	x	x	-5%	2.6	-5
O=C(O)C1CCN(Cc2ccccn2)CC1	x	3	-7%	0.2	1
C=CCn1c(Cc2csc(N)n2)nnc1SCC(=O)OCC	-11	1	-1%	1.3	-17
COc1ccc(CCN(C)C(=O)CSc2nccn2C)cc1OC	-14	-2	-10%	-1.0	-2
CC(C)C1C(C#N)=C(N)Oc2n[nH]c(-c3ccc4ccccc4c3)c21 (stereo not given)	-18	-23	-12%	3.5	4
O=C(Cc1ccccc1)NCC(=O)OC(c1ccccc1)c1ccccc1	x	-2	0%	0.0	3
Cc1oc(-c2cccs2)nc1CS(=O)CC(=O)NCCc1ccccc1 (stereo not given)	-37	1	0%	5.2	-6	Arbovirus anti repeat=1
CCC(=O)NC(=S)Nc1ccc(NC(=S)NC(=O)c2ccccc2)cc1	x	1	56%	-0.5	x
C(=N\NCc1ccccc1)/c1ccc2ncccc2c1	x	x	-4%	x	8
Cc1onc(-c2c(F)cccc2Cl)c1C(=O)Nc1nccs1	x	0	6%	-0.9	4
COc1ccc(N2CCN(CCCNC(=O)C(=O)c3c[nH]c4ccccc34)CC2)cc1	x	x	x	-2.2	-4
COc1cc(/C=N/NC(=O)c2ccncc2)ccc1O	x	x	x	-7.1&4.2	98&98
CCOc1ccc(CN(C)C(=O)[C@H](C)NC(=O)c2ccco2)cc1OC	x	x	x	2.6	7
CC(Nc1cc(N2CCNCC2)ccc1[N+](=O)[O-])c1ccccc1 (stereo not given)	-14	-35	9%	-0.7	10
CCCCN(C)S(=O)(=O)c1ccc(C(=O)N(CCN(C)C)c2nc3ccc(C)cc3s2)cc1	x	-2	4%	x	-5
CC(Oc1ccc(Br)cc1)C(=O)NC1CCN(Cc2ccccc2)CC1 (stereo not given)	x	x	x	0.3	-12
COc1ccc(NC(=O)CCC(=O)N/N=C/c2cccnc2)cc1	x	x	x	-3.5	-7
CN(C)c1ccccc1C(=O)N1CCCC(Nc2ccc(F)cc2)C1 (stereo not given)	x	x	x	5.1	-12
O=c1cc(Cl)[nH]c(=O)n1Cc1ccc(F)cc1	x	x	x	-7.3	-6
CC1CCN(C2=C(NS(=O)(=O)c3ccc(Cl)cc3)C(=O)c3ccccc3C2=O)CC1	0	-5	6%	24	2
COc1cccc(-c2cc(C(=O)N3CCN(c4ncccn4)CC3)c3ccccc3n2)c1	-11	1	x	5.6	6	Arbovirus anti repeat=-5
Cc1nnc(SC(C)C(=O)Nc2ccc3c(c2)OCCO3)s1 (stereo not given)	-37	-1	8%	-1.4	-7
O=C(NCCCl)NNC(=O)c1cc2ccccc2cc1O	x	x	-2%	-39	-1
CCOc1ccc(C(=O)c2nc3c(n2O)CCCCC3)cc1	5	8	x	-1.8	31
CCCC(=O)Nc1ccc(Cl)c(NC(=O)c2ccc(Br)o2)c1	3	-17	3%	0.6	3
COc1cccc(N2C(=O)CC(N3CCC(c4nc5ccccc5[nH]4)CC3)C2=O)c1 (stereo not given)	-24	4	5%	-0.7	3
COc1cc(C(=O)NCC2CCCO2)ccc1OCc1ccccc1 (stereo not given)	x	x	x	-1.6	-12
O=C(NCC(=O)N(c1cccnc1)C(C(=O)NC1CCCCC1)c1cccnc1)c1ccco1 (stereo not given)	-3	6	6%	-0.1	2
COc1ccc(NS(=O)(=O)c2cccc(C(=O)NCC(c3ccco3)N3CCCC3)c2)cc1 (stereo not given)	x	x	x	0.2	-15
COC(=O)c1nc(NC(=O)c2ccc(F)cc2)n[nH]1	x	-4	-7%	23	x
Cc1cc(C)c(C(=O)CSc2nc3ccccc3c(=O)[nH]2)cc1C	x	-6	3%	1.4	14
CCOc1ccc(CC(=O)N/N=C(\C)c2cccnc2)cc1	x	x	x	4.6	-8
COc1ccccc1/C=C\C(=O)NCC(=O)N/N=C(\C)Cc1ccccc1	x	x	2%	-1.0	2
CC(=O)Nc1ccccc1OCCOc1ccc(Br)cc1	x	11	3%	0.6	-10
Cc1cc(NC(=O)CCC(=O)N(c2cccc(F)c2)C(C(=O)NC2CCCC2)c2ccncc2)no1 (stereo not given)	-33	6	-2%	-0.1	-5
COC(=O)Nc1ccc(S(=O)(=O)N2CCC(C(=O)NC3CCCCC3)CC2)cc1	x	7	-1%	0.4	9
Cc1ccc(NC(=O)C2(c3ccccc3)CCOCC2)c([N+](=O)[O-])c1	-16	-5	9%	-1.2	-10
CCCCN(C)CCNC(=O)c1c[nH]c2ccc(S(=O)(=O)N(CC)CC)cc2c1=O	-50	10	x	-0.2	-1
CCOc1ccc2nc(SCC(=O)Nc3ccc(S(=O)(=O)N4CCCC4)cc3)c(C)cc2c1	x	x	-2%	2.3	-4
COc1ccc(NC(=O)N2CCCc3cccc(C)c32)cc1	x	x	9%	0.7	-5
O=C1CCC(=O)N1CC1CC2CCC1C2 (stereo not given)	x	x	-20%	0.5	-1
Cc1cccc(-c2nnc3sc(-c4ccccc4)nn23)c1	-41	1	10%	0.6	49
COC(C[C@H]1O[C@@H]1[C@H](O)[C@H](C)OCc1ccccc1)OC	x	x	-5%	1.5	1
C/C(=C\C(=O)c1ccc(Cl)cc1Cl)N(C)C	x	4	2%	x	3
CN(C)c1ccc(-c2nnn(CC(=O)Nc3ccccc3N3CCOCC3)n2)cc1	-21	-4	x	1.1	5
Cc1cccc(N2C(=O)N3[C@H](c4ccc(Cl)cc4)[C@@H]4C(=O)N(C5CCCCC5)C(=O)[C@@H]4[C@]3(Cc3ccc(Cl)cc3)C2=O)c1	x	x	x	-1.0	-13
Cc1c(-c2ccc(Br)cc2)[n+](=O)c2c(n1[O-])CCCCC2	x	x	-6%	-0.2	-9
NC(=O)Cc1ccc(C(=O)c2ccc(F)cc2)s1	x	8	-5%	-2.5	-4
COc1ccc(CC(=O)Nc2ccccc2N2CCOCC2)cc1OC	x	7	6%	-0.1	-11
CCn1c(SCC(=O)N2CCC(C)CC2)nc2c(c1=O)SCC2	x	x	x	-0.3	-12
Cc1cccc2sc(NC(=O)[C@@H]3CCCN3C(=O)c3cccs3)nc12	3	14	3%	-1.4	4
O=C(COC(=O)c1cncc(Br)c1)Nc1nc(-c2ccc(F)cc2)cs1	x	x	2%	1.4	4

Source: PubChem BioAssay (several laboratories)

The list is partial; count on the stated rates, not on these rows.
